VDR inhibitor: blocks the human vitamin D receptor; P11473; VDR-SRC2-3 peptide fluorescence polarization, 2 h; Potency, µM, for the others: max response, negative = inhibition, hits mostly inhibitors; hit rate 0.93% among 400,000; AID 504847; active = well fitted inhibition curve with a large enough effect; inconclusive = small, poorly fitted or top-dose-only effect, or another doubt; inactive = no such curve, though single readings can be large or run the other way; note: series mostly up to about 120 µM
Target sequence (P11473 whole entry, looked up): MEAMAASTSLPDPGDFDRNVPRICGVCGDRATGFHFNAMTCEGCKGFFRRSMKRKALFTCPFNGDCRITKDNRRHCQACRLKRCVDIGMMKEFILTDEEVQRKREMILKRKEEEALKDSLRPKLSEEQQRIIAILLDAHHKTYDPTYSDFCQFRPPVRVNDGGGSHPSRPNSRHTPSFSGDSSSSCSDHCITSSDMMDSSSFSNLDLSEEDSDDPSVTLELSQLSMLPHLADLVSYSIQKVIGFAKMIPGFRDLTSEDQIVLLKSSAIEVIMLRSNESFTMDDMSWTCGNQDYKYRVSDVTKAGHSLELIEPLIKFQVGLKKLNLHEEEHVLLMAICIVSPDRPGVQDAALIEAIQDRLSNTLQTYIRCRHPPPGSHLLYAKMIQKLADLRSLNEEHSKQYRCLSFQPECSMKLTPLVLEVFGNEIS
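FP read-out; VDR + SRC2-3 coactivator peptide; 23 nl compound by pintool; 2 h RT incubation; reagents held at 4 deg C, protected from light.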
* hit, by the source's call; ? = inconclusive; & = joins results of further samples. % is set by controls: 0 for no effect and ±100 for the full control effect; potency is the fitted concentration of half-maximal effect. Some of the compounds tested, so the mix of outcomes need not match the whole.

VDR inhibitor	SMILES
?	CC(C)(C)c1nnc(NC(=O)c2cc(-c3ccccc3)nc3ccccc23)s1
0.1%	COc1ccccc1S(=O)(=O)Cc1ccc(C(=O)NCc2cccs2)o1
-23.6%	CC(O)c1n(C)c(Cl)c[n+]1C (stereo not given)
23.8%	CCOc1ccccc1NC(=O)CSc1cn[nH]n1
17.2%	COC(=O)c1c(C)[nH]c(/C=N/Nc2ccccc2)c1C
-4.2%	Cc1cn(C2CC3OCC(NC(=O)C4CCCN4C(=O)OC(C)(C)C)C3O2)c(=O)[nH]c1=O (stereo not given)
8.4%	CN1CCCC(OC(=O)CCCC(=O)OC2CCCN(C)C2)C1 (stereo not given)
-12.6%	O=C(O)CC1c2ccccc2CCN1S(=O)(=O)c1ccc(F)cc1 (stereo not given)
3.8%	Cc1ccc(C)c2c1N(Cc1ccccc1)C(=O)C21OCCO1
-2.3%	CCCNC(=O)NC(=O)CN1C(=O)NC(C)(c2ccc(C)cc2)C1=O (stereo not given)
3.9%	CCc1cc2c(=O)n(N)c(CCC(=O)O)nc2s1
-5.4%	COc1ccc(-n2c(C)nc3c(cnn3-c3ccccc3)c2=O)cc1
6.5%	COc1cc(CC2C(=O)OCC2C(=O)c2ccc3c(c2)OCO3)cc(OC)c1OC (stereo not given)
4.8%	CC1CCCN(CCCNC(=O)C2CCN(S(=O)(=O)N3CCC4(CC3)OCCO4)CC2)C1 (stereo not given)
26.2%	Cc1ccc2ncnc(Nc3ccccc3)c2c1
-3.0%	CCC(=O)N1c2ccc(S(=O)(=O)N3CCCCC3)cc2CC1C (stereo not given)
-6.6%&-12.3%	COc1ccc(N(CC(=O)N2CCc3ccccc3C2)S(=O)(=O)c2ccccc2)cc1
16.0%	CC(C)CC(=O)Nc1ccc(C(=O)OCc2cc(=O)n3nc(C(C)C)sc3n2)cc1
-0.1%	COc1ccccc1C1CCN(c2ccc([N+](=O)[O-])c(OC)c2)CC1
-14.8%	COc1ccccc1N/C=C(\C#N)c1nc2ccccc2[nH]1
-7.2%	Cc1csc(SCC(=O)Nc2cc(S(=O)(=O)N3CCOCC3)ccc2N2CCOCC2)n1
15.7%	Cc1ccc(S(=O)(=O)NC(C)(C)CN2CCC(Cc3ccccc3)CC2)cc1
?	Cc1cccc(Oc2nc3ccccn3c(=O)c2/C=C(\C#N)c2nc3ccccc3s2)c1C
10.1%	CCn1cc(/C=N/NC(=O)c2cc3c(ccc4ccccc43)o2)c2ccccc21
-10.9%	CCNc1ncc2nc(-c3ccc(OC)cc3)c(=O)n(Cc3cccs3)c2n1
-7.4%	Cc1c(NC(=O)c2cccc(NS(C)(=O)=O)c2)c(=O)n(-c2ccccc2)n1C
-15.0%	COc1ccc(OC)c(NC(=O)Nc2nnc(N3CCC(C)CC3)s2)c1
-1.1%	Nn1c(SCC(=O)Nc2ccc3c(c2)OCO3)nnc1C(F)(F)F
-4.8%	COc1cc(CNc2ncnc3c2[nH]c2ccc(C)cc23)cc(OC)c1
?	Cn1c(SCC(=O)c2ccccc2F)nnc1C1CC1
-18.1%	O=C1OC(c2ccccc2)(c2ccccc2)c2ccccc21
-1.8%	CCC1=NC(c2ccc(OC)cc2OC)N(O)C1(C)C (stereo not given)
?	Cc1ccc2c(=O)c3ccccc3n(CCCN)c2c1C
4.8%	CCN(CC)c1ccc(C(=O)NCc2nc3cccnc3n2Cc2ccc(C)cc2)cc1
-21.6%	COc1ccc(N/N=C(/C(N)=O)C2=NC(C)(C)Cc3ccccc32)cc1
-4.9%	CC(=NC1CCN(Cc2ccccc2)CC1)c1c(O)[nH]c(=O)[nH]c1=O
-11.0%	CCN(CC)C(=O)/C(=C\c1ccc(Br)cc1)NC(=O)c1ccccc1OC
4.3%	COc1ccc(OC)c(C(=O)C(=O)c2cc(OC)ccc2OC)c1
-12.7%	Cc1c(C(=O)NC(C)C2CC3CCC2C3)cccc1[N+](=O)[O-] (stereo not given)
-7.4%	O=C(NCc1cccs1)c1cccc(S(=O)(=O)N2CCCCC2)c1
-18.2%	CN(C)C(=O)/C(=C/c1cn(-c2ccccc2)nc1-c1cccc([N+](=O)[O-])c1)NC(=O)c1ccccc1
-14.5%	CC(C)Cn1nc(C(=O)Nc2cccc(S(=O)(=O)N3CCCC3)c2)c2ccccc2c1=O
7.1%	Cc1cc(N2CCN(Cc3nc(-c4ccc(F)cc4)oc3C)CC2)cc(C)n1
0.6%	C=CCNC(=O)c1ccc2nc(Cc3ccc(OC)cc3)oc2c1
-4.1%	CC(C)(C)CC(=O)NC(=S)Nc1ccccc1C(F)(F)F
-14.6%	O=C1COc2ccc(S(=O)(=O)N3CCN(c4ccccc4F)CC3)cc2N1
12.8%	CCOC(=O)c1sc(NC(=O)COc2ncnc3ccccc23)c(C(=O)OCC)c1C
-25.4%	COc1ccc(C2=NN(CN3C(=O)C(=O)c4ccccc43)C(c3cccc([N+](=O)[O-])c3)C2)cc1 (stereo not given)
-0.9%	O=C(O)c1ccc(Cl)c(S(=O)(=O)NCc2ccco2)c1
-21.5%	COc1ccc(-n2nc(C(=O)N3CCN(c4ccccc4OC)CC3)c3c4ccccc4n(C)c3c2=O)cc1

Next section.
VDR inhibitor	SMILES
14.3%	O=C(COC(=O)c1ccc(Cl)c(Cl)c1)NC1CCCC1
-8.0%	S=C(Nc1ccccc1Cl)N1CCCCCC1
-4.2%	O=C1NC2(CCC3(CC2)OCCO3)NN1c1ccc(Cl)cc1
-14.0%	CN(C(=O)Cn1c(Cl)nc2c1c(=O)n(C)c(=O)n2C)C1CCS(=O)(=O)C1 (stereo not given)
26.3%	Oc1ccc(C2N=C(c3ccccc3)NC(c3ccccc3)=N2)cc1
-13.2%	CCN(CC)CCCN1C(=O)C(=O)/C(=C(/O)c2ccc(Cl)cc2)C1c1ccccn1 (stereo not given)
9.0%	O=C(NC1CCCCC1)C(c1ccccc1)N(C(=O)c1cccs1)c1ccc2c(c1)OCO2 (stereo not given)
-15.1%	C=C(C)CN(CC)C(=O)CN1C(=O)NC(C)(c2ccc3ccccc3c2)C1=O (stereo not given)
15.8%	Cc1nc2ncnn2c(C)c1CCC(=O)NCc1ccccc1
-1.8%	COc1ccc(Nc2ncnc3ccc(C)cc23)cc1
25.4%	CCCOc1ccc(C2NC(=O)NC(c3ccccc3)=C2C(C)=O)cc1OCC (stereo not given)
-7.1%	O=C(NCCC(=O)N1CCN(c2ccccn2)CC1)c1ccc(Br)cc1
?	CCC(CC)NCc1ccc2c(c1)c1ccccc1n2CC
7.2%	CSCCC(NC(=O)CCNC(=O)c1ccccc1Cl)c1nc2ccccc2[nH]1 (stereo not given)
7.8%	O=C(N/N=C/c1cccc(OC(=O)c2ccco2)c1)c1ccc(F)cc1
-10.9%	COc1ccc(/C=N/n2c(C)cc(C)c(C(N)=O)c2=O)cc1
-6.9%	CCOC(=O)[C@@H]1[C@H]2COc3ccccc3[C@@H]2N2C(=O)N(c3ccc(OC)cc3)C(=O)[C@@]12C
-8.6%	CCC(=O)NCc1cc(-c2nn(C)c(=O)c3ccccc23)ccc1C
4.0%	Cc1nn(-c2ncc(C(F)(F)F)cc2Cl)c(=O)n1-c1cccc(Cl)c1
-0.8%	CCN1C(=O)C(CC(=O)Nc2ccccc2)N(Cc2ccccn2)C1=S (stereo not given)
-6.1%	Cc1ccc[n+](CC(=O)Nc2cccc([N+](=O)[O-])c2)c1
-16.3%	Cc1cccc2sc(N(CCCN(C)C)C(=O)c3ccc(C(=O)c4ccccc4)cc3)nc12
9.2%	CCOC(=O)C1CCN(C(=O)c2ccc(SC)cc2OC)CC1
-4.4%	C[C@H](CO)N1C[C@H](C)[C@@H](CN(C)S(=O)(=O)c2ccc(F)cc2)Oc2ccc(NC(=O)C3CCCCC3)cc2C1=O
-17.3%	CC(=O)c1ccc2noc(-c3cccc(F)c3)c2c1
-13.2%	N#Cc1cccc(NC(=O)COC(=O)CCc2ccc(S(=O)(=O)N3CCOCC3)cc2)c1
-16.0%	COc1cc(CCNC2=CC(=O)c3ncccc3C2=O)ccc1O
-6.8%	O=C1C(=NO)CC(c2ccccc2)N1c1ccccc1 (stereo not given)
0.0%	Nc1cccnc1Oc1ccc(F)cc1F
7.1%	COc1ccc(NS(=O)(=O)c2cccc(NC(=O)C3=NN(c4ccccc4)C(=O)CC3)c2)cc1

Part of the list above in another layout:
compound	VDR inhibitor
COc1ccc(/C=N/n2c(C)cc(C)c(C(N)=O)c2=O)cc1	-10.9%
CCOC(=O)[C@@H]1[C@H]2COc3ccccc3[C@@H]2N2C(=O)N(c3ccc(OC)cc3)C(=O)[C@@]12C	-6.9%
CCC(=O)NCc1cc(-c2nn(C)c(=O)c3ccccc23)ccc1C	-8.6%
Cc1nn(-c2ncc(C(F)(F)F)cc2Cl)c(=O)n1-c1cccc(Cl)c1	4.0%
CCN1C(=O)C(CC(=O)Nc2ccccc2)N(Cc2ccccn2)C1=S (stereo not given)	-0.8%
Cc1ccc[n+](CC(=O)Nc2cccc([N+](=O)[O-])c2)c1	-6.1%
Cc1cccc2sc(N(CCCN(C)C)C(=O)c3ccc(C(=O)c4ccccc4)cc3)nc12	-16.3%
CCOC(=O)C1CCN(C(=O)c2ccc(SC)cc2OC)CC1	9.2%
C[C@H](CO)N1C[C@H](C)[C@@H](CN(C)S(=O)(=O)c2ccc(F)cc2)Oc2ccc(NC(=O)C3CCCCC3)cc2C1=O	-4.4%
CC(=O)c1ccc2noc(-c3cccc(F)c3)c2c1	-17.3%
N#Cc1cccc(NC(=O)COC(=O)CCc2ccc(S(=O)(=O)N3CCOCC3)cc2)c1	-13.2%
COc1cc(CCNC2=CC(=O)c3ncccc3C2=O)ccc1O	-16.0%
O=C1C(=NO)CC(c2ccccc2)N1c1ccccc1 (stereo not given)	-6.8%
Nc1cccnc1Oc1ccc(F)cc1F	0.0%
COc1ccc(NS(=O)(=O)c2cccc(NC(=O)C3=NN(c4ccccc4)C(=O)CC3)c2)cc1	7.1%

Remaining list, next part
VDR inhibitor	SMILES
0.9%	COc1ccc(CCNC(=O)Cn2nnc(-c3cccs3)n2)cc1OC
-4.7%	CCOc1ccc(OCC)c(S(=O)(=O)NNC(=O)c2c(C)nc3ccccn23)c1
-10.8%	CC(C)(C)N(Cc1ccccc1)C(=O)c1ccc2c(c1)OCCO2
-14.4%	CN(Cc1cc2cc(F)ccc2[nH]1)Cc1nc(-c2cnccn2)no1
18.0%	Cc1ccc2c(CC(=O)N3CCN(S(=O)(=O)c4cccs4)CC3)coc2c1
-3.1%	O=C(CNC(=O)c1ccc2ccccc2c1)Nc1ncccc1O
12.6%	CCCN(C(=O)c1c(-c2ccccc2)noc1C)c1c(N)n(Cc2ccccc2)c(=O)[nH]c1=O
13.0%	CCOc1ccc(S(=O)(=O)N(CC)CC(=O)NCc2ccncc2)cc1
9.1%	CS(=O)(=O)N1CC(C(=O)NC2CCCC2)Oc2ccc(Cl)cc21 (stereo not given)
-0.1%	COc1ccc2c(c1)C(=O)[C@H](OC(=O)N[C@H](C)C1CCCCC1)[C@@H](c1ccc(OC)c(Br)c1)O2
-7.1%	COc1cccc(CN2CCN(c3nc4nonc4nc3N3CCCCC3)CC2=O)c1
-5.0%	CSc1ccccc1OCc1cc(C(=O)N(C)CC2COCCO2)no1 (stereo not given)
-6.9%	CSc1ccc(CN2C(=O)NC3(CCCCCC3)C2=O)cc1
-0.7%	CCCS(=O)(=O)Nc1ccc(Nc2c3ccccc3nc3ccccc23)c(OC)c1
-6.4%	Cc1ccc(-c2nnc(-c3ccc4c(c3)OCO4)o2)cc1
5.5%	CCc1ccc(NC(=O)c2ccc(F)c(S(=O)(=O)NC3CCCCCC3)c2)cc1
-12.3%	CC1CCN(C(=O)c2ccc3c(c2)NC(=O)/C(=C/c2ccccc2)S3)CC1
-8.2%	C=CCN(C(=O)CSc1nc2[nH]ncc2c(=O)n1-c1ccccc1OC)c1ccccc1
-8.3%	COc1ccc(NC(=O)Nc2ccccc2SC)c(OC)c1
-1.4%	Cc1ccc(S(=O)(=O)N2CCN(C(=O)c3ccc(N4CCCC4)c([N+](=O)[O-])c3)CC2)cc1
-8.8%	COc1ccccc1C1CCN(c2ccc(CO)cc2[N+](=O)[O-])CC1
13.9%&0.6%	O=C(COc1ccccc1)Nc1nnc(S(=O)(=O)N2CCCCCC2)s1
13.1%	NC1=NS(=O)(=O)NC1c1ccc(F)cc1 (stereo not given)
14.0%	CCOc1ccc(S(=O)(=O)NCCC(=O)OCC(=O)N2CC(=O)Nc3ccccc32)cc1
6.6%	CNC(=S)N(C)c1ccccc1
4.9%	Cc1cccc(NC(=O)C2C(c3ccccc3)C2(Cl)Cl)c1C (stereo not given)
-8.0%	Cc1cccc(C(=O)NNC(=O)c2ccco2)c1O
-15.8%	O=C1c2ccccc2-c2c1cccc2C(=O)N(CCO)CCO
-0.2%	O=C(OCCN1CCN(C2=NS(=O)(=O)c3ccccc32)CC1)c1cccc(Br)c1
-14.0%	CC(CN1CCOCC1)OC(=O)c1ccc(Br)cc1 (stereo not given)
7.3%	COc1ccccc1C(=O)C1CCCN(C(=O)c2ccccn2)C1 (stereo not given)
-6.3%	CCC1=C2CC[C@H]3C(=O)N(C)C(=O)[C@H]3[C@H]2[C@@]2(Cc3ccccc3)C(=NCCOC)OC(=O)N2C1=O
2.7%	Cc1ccc(NC(=O)c2c(C)oc3ccc(O)c(CN4CCN(Cc5ccccc5)CC4)c23)cc1
3.7%	CNC(=S)N1CCN(C(=O)C2CCCO2)CC1 (stereo not given)
-18.0%&-8.5%	N#Cc1nc(N)nc(N(c2ccccc2)c2ccccc2)n1
6.3%	CCOC(=O)c1c(-c2ccc(C)cc2)csc1NC(=O)C1CCCO1 (stereo not given)
-25.8%	O=[N+]([O-])c1ccc(/C=N/N2CCCCC2)cc1
-17.2%	COCCN(C(=O)COC(=O)c1ccc(C)o1)c1c(N)n(Cc2ccccc2)c(=O)[nH]c1=O
5.6%	Cc1ccc(OCC(=O)NNC(=O)C2CCN(c3ncnc4sc(C)c(C)c34)CC2)cc1
14.2%	CC(=O)Nc1cccc(NS(=O)(=O)c2cccc3nsnc23)c1
-0.3%	CCOc1ccc(C(=O)NCC(=O)OCC(=O)Nc2ccc(C)c(S(=O)(=O)N(C)C)c2)cc1

Screening data: PubChem BioAssay, National Center for Advancing Translational Sciences (NCATS)
